Assay outcomes from PubChem.
OXTR potentiator = potentiators of human oxytocin receptor | P30559 | CHO-OTR cells, Fluo-8 calcium fluorescence, potentiator mode; 0% = oxytocin EC15, 100% = EC100 | activation, % at 3 µM | actives 0.061% (n = 320,000) | AID 2445;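 active = activation above that plate's cutoff, the mean activation of tested compounds plus 3 SD, cut at about 6.6% in these data, passing the limit was not always enough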;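 note: 100% uses oxytocin at 75 nM as the full agonist control; some results filed as inactive read as strong as hits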
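System: human OTR in CHO cells; Also added: sub-maximal oxytocin, roughly EC15; Timing: compound 6 min at room temperature before oxytocin, 100 s read; Technique: Fluo-8 intracellular calcium fluorescence, ex 470-495, em 515-575 nm; Controls: oxytocin EC15 low and EC100 high; Replication: singlicate.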
TAAR1 antag = antagonists of human TAAR1. Q96RJ0. CHO RD-HGA16 TAAR1, Fluo-8 calcium fluorescence, antagonist. inhibition, % at 3 µM. actives 1.5% (n = 360,000);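 active = inhibition above a per-plate cutoff, the mean inhibition of test compounds on that plate plus 3 SD, cut at about 49% in these data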;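 note: 0% = DMSO plus EC80 beta-PEA response and 100% = DMSO alone without agonist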
Target sequence (Q96RJ0 whole entry, looked up): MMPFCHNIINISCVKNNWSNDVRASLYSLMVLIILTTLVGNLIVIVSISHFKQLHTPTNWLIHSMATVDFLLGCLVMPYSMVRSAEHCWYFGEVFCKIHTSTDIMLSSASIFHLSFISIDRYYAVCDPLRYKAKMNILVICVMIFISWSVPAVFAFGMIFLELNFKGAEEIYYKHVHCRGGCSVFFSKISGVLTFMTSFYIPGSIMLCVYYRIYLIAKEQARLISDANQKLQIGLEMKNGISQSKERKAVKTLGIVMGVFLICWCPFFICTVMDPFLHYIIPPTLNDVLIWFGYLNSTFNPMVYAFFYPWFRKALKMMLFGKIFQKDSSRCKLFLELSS
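Test system – hTAAR1-expressing CHO RD-HGA16 cells, Gα16-coupled · Reagent – β-PEA at EC80 concentration, post-compound challenge · Compound dosing – 3 µM, single point · Timing – 140 s kinetic read after compound, 140 s after agonist · Detection – Fluo-8 intracellular calcium dye fluorescence, real-time kinetic reads · Control set – DMSO and EC80 PEA controls · Repeats – n of 1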
V1aR counter = counter-screen for oxytocin receptor agonists: human V1a receptor agonists. P37288. CHO-V1R cells, Fluo-8 calcium fluorescence, agonist mode; 0% DMSO, 100% 3 nM vasopressin. activation, % at 3 µM. actives 0.25% (n = 320,000);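 active = activation above the mean activation of all tested compounds plus 3 SD, per screening run, cut at about 20% in these data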;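 note: signal is peak over basal fluorescence ratio across a 100 second FLIPR read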
Target sequence (P37288 whole entry, looked up): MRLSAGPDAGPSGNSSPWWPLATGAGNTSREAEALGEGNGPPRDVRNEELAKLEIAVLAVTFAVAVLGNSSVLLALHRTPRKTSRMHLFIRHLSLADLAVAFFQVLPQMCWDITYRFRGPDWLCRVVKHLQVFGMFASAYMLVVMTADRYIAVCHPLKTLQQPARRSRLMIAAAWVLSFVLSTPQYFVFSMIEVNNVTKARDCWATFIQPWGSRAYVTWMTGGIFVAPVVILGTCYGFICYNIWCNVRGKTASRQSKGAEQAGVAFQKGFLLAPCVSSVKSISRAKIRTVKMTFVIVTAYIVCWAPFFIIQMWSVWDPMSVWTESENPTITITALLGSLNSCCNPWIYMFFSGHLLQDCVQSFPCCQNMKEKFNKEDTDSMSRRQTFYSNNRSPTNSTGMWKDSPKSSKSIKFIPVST
TAAR1 agonist = human TAAR1 agonism; CHO RD-HGA16 TAAR1, Fluo-8 calcium fluorescence; vehicle wells 0%, saturating PEA agonist 100%; actives 0.99% (n = 360,000); Q96RJ0; activation, % at 3 µM;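 active = activation above the mean activation of all test compounds in the run plus 3 SD, cut at about 38% in these data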
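Signal – calcium-sensitive Fluo-8 signal, excitation 470-495, emission 515-575 nm · System – RD-HGA16 (CHO) cells co-expressing Gα16 and hTAAR1 · Incubation – 17-24 h seeding, 75 min 37 °C dye, 30 min RT · Compound dosing – 3 µM single concentration · Repeats – no replicates (n 1)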
CHO parental Ca = counter-screen: ATP calcium response change in parental CHO cells | actives 0.63% (n = 330,000) | AID 463079 | parental CHO-K1, ATP-induced calcium, Fluo-8 fluorescence | inhibition, % at 5.6 µM;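 active = inhibition above that plate's mean sample inhibition plus 3 SD, cut at about 26% in these data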;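 note: 0% = ATP-challenged DMSO wells and 100% = DMSO wells without ATP; some compounds past the cut are filed as inactive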
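Assay system – parental CHO cells · Reagent – ATP stimulus · Detection – intracellular calcium via Fluo-8 no-wash fluorescent dye · Evaluation – percent inhibition of ATP-evoked calcium rise, normalized to controls · Controls – ATP wells versus no-ATP DMSO wells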
Active calls of the source: *; · = not tested or not shown; & = joins results of further samples. The list is partial; the hit share may differ from the screen's.

| SMILES | OXTR potentiator | TAAR1 antag | V1aR counter | TAAR1 agonist | CHO parental Ca |
| --- | --- | --- | --- | --- | --- |
| N[C@@H](Cc1ccc(O)c(O)c1)C(=O)O | · | 6 | · | 2 | · |
| OC(CCCN1CCCCC1)(c1ccccc1)c1ccccc1 | -7 | -18 | -0.1 | 2 | 27 |
| CCOC(=O)[C@H](CCc1ccccc1)N[C@@H](C)C(=O)N1[C@H](C(=O)O)C[C@@H]2CCC[C@@H]21 | 2 | -6 | 0.2 | 1 | -12 |
| C#C[C@]1(OC(C)=O)CCC2C3CCC4=CC(=O)CC[C@@H]4C3CC[C@@]21C (stereo partly drawn) | -11 | 36 | 3.8 | 0 | -8 |
| CC1OC(OC2C(CO)OC(OC3C(CO)OC(O)C(O)C3O)C(O)C2O)C(O)C(O)C1N[C@@H]1C=C(CO)[C@@H](O)C(O)[C@H]1O (stereo partly drawn) | 0 | -8 | -0.5 | 0 | -3 |
| O=CC(O)C1OC(=O)C(O)C1O (stereo not drawn) | · | -3 | · | 1 | · |
| COc1ccc(Cn2cc(C(=O)O)c(=O)c3ccccc32)cc1 | -4 | 6 | 1.2 | 6 | -7 |
| CC[C@H](C)C(=O)O[C@H]1CCC=C2C=C[C@H](C)[C@H](CC[C@@H]3C[C@@H](O)CC(=O)O3)[C@H]21 | 7 | -10 | -0.6 | -2 | -23 |
| C[C@@H]1C[C@H]2[C@@H]3CCC4=CC(=O)C=C[C@]4(C)[C@@]3(F)[C@@H](O)C[C@]2(C)[C@@]1(O)C(=O)CO | -4&-4 | -21 | 0.5&-0.4 | 2 | -9&-8 |
| O=c1[nH]c(=O)n(C2CCCO2)cc1F (stereo not drawn) | -9 | 0 | 1.3 | 3 | -9 |
| CCCC(CCC)C(=O)O | 0&-7 | 3&-8 | 0.5&0.6 | 1&1 | -6&-1 |
| CC(C)(S)[C@@H](N)C(=O)O | -1 | 16 | 0.0 | 1 | -11 |
| CO[C@H]1C=CO[C@@]2(C)Oc3c(C)c(O)c4c(O)c(c(C=NN5CCN(C)CC5)c(O)c4c3C2=O)NC(=O)C(C)=CC=C[C@H](C)[C@H](O)[C@@H](C)[C@@H](O)[C@@H](C)[C@H](OC(C)=O)[C@@H]1C | -4 | -9 | -0.4 | 0 | -12 |
| NS(=O)(=O)c1cc2c(cc1Cl)NC(C(Cl)Cl)NS2(=O)=O (stereo not drawn) | -6 | -4 | 1.4 | 0 | -10 |
| CCCN1C[C@H](CSC)C[C@@H]2c3cccc4[nH]cc(c34)C[C@H]21 | -7 | -4 | 2.8 | 11 | -17 |
| CC(O)CO (stereo not drawn) | 3 | 2 | 1.3 | 3 | -10 |
| CC(=O)O[C@]1(C(C)=O)CC[C@H]2[C@@H]3C=C(Cl)C4=CC(=O)CC[C@]4(C)[C@H]3CC[C@@]21C | 3 | 7 | -0.3 | 1 | -19 |
| Cc1c(OCC(F)(F)F)ccnc1CS(=O)c1nc2ccccc2[nH]1 (stereo not drawn) | -7 | 8 | 1.2 | 4 | -17 |
| Cc1ncc([N+](=O)[O-])n1CC(C)O (stereo not drawn) | -6 | -3 | -0.1 | 1 | -6 |
| C/C=C/c1ccc(O)c(OC)c1 | -7 | -20 | -0.3 | 0 | -5 |

As a short view, part of the list above:
| SMILES | OXTR potentiator | TAAR1 antag | V1aR counter | TAAR1 agonist | CHO parental Ca |
| --- | --- | --- | --- | --- | --- |
| CCCC(CCC)C(=O)O | 0&-7 | 3&-8 | 0.5&0.6 | 1&1 | -6&-1 |
| CC(C)(S)[C@@H](N)C(=O)O | -1 | 16 | 0.0 | 1 | -11 |
| CO[C@H]1C=CO[C@@]2(C)Oc3c(C)c(O)c4c(O)c(c(C=NN5CCN(C)CC5)c(O)c4c3C2=O)NC(=O)C(C)=CC=C[C@H](C)[C@H](O)[C@@H](C)[C@@H](O)[C@@H](C)[C@H](OC(C)=O)[C@@H]1C | -4 | -9 | -0.4 | 0 | -12 |
| NS(=O)(=O)c1cc2c(cc1Cl)NC(C(Cl)Cl)NS2(=O)=O (stereo not drawn) | -6 | -4 | 1.4 | 0 | -10 |
| CCCN1C[C@H](CSC)C[C@@H]2c3cccc4[nH]cc(c34)C[C@H]21 | -7 | -4 | 2.8 | 11 | -17 |
| CC(O)CO (stereo not drawn) | 3 | 2 | 1.3 | 3 | -10 |
| CC(=O)O[C@]1(C(C)=O)CC[C@H]2[C@@H]3C=C(Cl)C4=CC(=O)CC[C@]4(C)[C@H]3CC[C@@]21C | 3 | 7 | -0.3 | 1 | -19 |

Full records, looked up by structure:
C/C=C/c1ccc(O)c(OC)c1 is listed as OXTR potentiator: -7; TAAR1 antag: -20; V1aR counter: -0.3; TAAR1 agonist: 0; CHO parental Ca: -5
CC(O)CO (stereo not drawn) is listed as OXTR potentiator: 3; TAAR1 antag: 2; V1aR counter: 1.3; TAAR1 agonist: 3; CHO parental Ca: -10

Next results
| SMILES | OXTR potentiator | TAAR1 antag | V1aR counter | TAAR1 agonist | CHO parental Ca |
| --- | --- | --- | --- | --- | --- |
| CC12CCC(CC1=O)C2(C)C (stereo not drawn) | 4 | -17 | -0.6 | 0 | -4 |
| CCN(CC)CCc1nc(-c2ccccc2)no1 | -2 | -7 | 0.6 | 0 | -8 |
| CC(=O)Nc1cccc(O)c1 | -5 | -5 | 0.6 | 1 | -8 |
| Cc1cccc(Nc2ccncc2S(=O)(=O)NC(=O)NC(C)C)c1 | -7 | -9 | 1.2 | 2 | -11 |
| CN1C[C@H](C(=O)NC2(C)OC3(O)[C@@H]4CCCN4C(=O)[C@H](Cc4ccccc4)N3C2=O)CC2c3cccc4[nH]cc(c34)C[C@H]21 (stereo partly drawn) | 1 | 5 | 0.3 | 1 | -14 |
| CCN1CCC[C@H]1CNC(=O)c1cc(S(N)(=O)=O)ccc1OC | -6 | · | 0.3 | · | -2 |
| C[C@]12CCC(=O)C=C1CC[C@@H]1[C@@H]2C(=O)C[C@@]2(C)[C@H]1CC[C@]2(O)C(=O)CO | -4 | -4 | -0.2 | 2 | 4 |
| C[N+](C)(C)CC(O)CC(=O)O (stereo not drawn) | -8 | -14 | -0.3 | 0 | -2 |
| c1ccc2c(c1)c1cccc3ccc4cccc2c4c31 | -3 | -32 | 0.1 | 3 | -8 |
| CN(C)C(=O)c1cccc(COc2ccc(N3C(N)=NC(N)=NC3(C)C)cc2Cl)c1 | · | -28 | · | -1 | · |

More entries.
Short forms – A = OXTR potentiator; B = TAAR1 antag; C = V1aR counter; D = TAAR1 agonist; E = CHO parental Ca
CCC(C)C(=O)OC1CCC=C2C=CC(C)C(CCC3CC(O)CC(=O)O3)C21 (stereo not drawn)
  A: ·	B: -18	C: ·	D: 0	E: ·
COc1ncnc(NS(=O)(=O)c2ccc(N)cc2)c1OC
  A: 2	B: 3	C: 1.2	D: 0	E: -8
O=c1c(-c2ccc(O)cc2)coc2cc(O)cc(O)c12
  A: -3	B: 23	C: 2.9	D: 2	E: -1
Nc1ccc(S(=O)(=O)Nc2ccnn2-c2ccccc2)cc1
  A: -3	B: -21	C: 0.4	D: 2	E: 0
CC(O)(P(=O)(O)O)P(=O)(O)O
  A: ·	B: 9	C: ·	D: -1	E: ·
CC(/C=C1\SC(=S)N(CC(=O)O)C1=O)=C\c1ccccc1
  A: 1	B: -1	C: 0.5	D: -3	E: -8
NC(=O)NO
  A: 2	B: 1	C: -0.2	D: 0	E: -6
C=C1C(=O)O[C@@H]2[C@H]3O[C@]3(C)CC/C=C(\C)CC[C@@H]12
  A: -6	B: -13	C: 0.4	D: 2	E: -4
CN(C)CCC=C1c2ccccc2CCc2ccccc21
  A: -5	B: -8	C: 1.8	D: 7	E: -17
CN1CCC(=C2c3ccccc3C=Cc3ccccc32)CC1
  A: -6	B: -4	C: 1.7	D: 5	E: -4
O=C(O)CC(O)C(=O)O (stereo not drawn)
  A: -11	B: -3	C: 0.4	D: 9	E: 12
COC(=O)Nc1nc2ccc(Sc3ccccc3)cc2[nH]1
  A: -7	B: 15	C: -0.1	D: 0	E: 2
O=C(O)c1ccccc1
  A: -3	B: 3	C: 1.5	D: 1	E: -9
